Biofilm kill mix = clotrimazole potentiators killing C. albicans biofilm, primary screen, 4-compound mixtures; C. albicans biofilm persisters + clotrimazole, fluorescence viability; primary screen in compound mixtures of four per well; inhibition, % at 7.6 µM; 120,000 compounds, 0.02% hits; AID 1242, 2008;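 active means inhibition above 30.3% in the primary screen of four-compound pools, then above 30% when the compound was retested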;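 further: compounds exposed to preformed 24 h biofilms for 48 h; the number belongs to the whole pool; some results filed as inactive read as strong as hits; inactives centre near 12; 0% = biofilm with clotrimazole alone and 100% = kill control; retested singly at about 60 µM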
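System: C. albicans CAF4-2 wild-type biofilms; Medium: RPMI/MOPS medium, pH 7.0; Reagent: Clotrimazole, 50 µg/mL; Times: biofilm formation 24 h, compound exposure 48 h, 37 °C; Detection: 2-h Alamar Blue fluorescence, 535/590 nm excitation/emission; Evaluation: percent inhibition of biofilm viability.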
The depositor's hits bear a star. Not all compounds are listed. The share of hits here may be higher or lower than overall.

SMILES | Biofilm kill mix
COCCNC(=S)NNC(=O)CSCc1ccc(Cl)cc1Cl | 12
CCOC(=O)c1cnc2c(C#N)cnn2c1N | 21
CCc1nnc(NC(=O)CSc2ccc(-c3cccs3)nn2)s1 | -5
COc1ccc(S(=O)(=O)NCC2CCC(C(=O)NCCC(C)C)CC2)cc1 (stereo not drawn) | 12
O=C(NCC(c1cccs1)N1CCOCC1)c1cc([N+](=O)[O-])ccc1Cl (stereo not drawn) | 10
Cc1ccc(C)c(NC(=O)CCN2CCc3ccccc3C2)c1 | 12
Cc1ccc(SCCC(=O)NC(C)(C)C)cc1 | 17
COc1cc(C(=O)Nc2ccc(C(N)=O)cc2)c([N+](=O)[O-])cc1OC | 7
CCSc1nc(C)c(C)c(=O)[nH]1 | 14
COCc1cc(=O)[nH]c(SCCS(=O)(=O)c2ccc(C)cc2)n1 | -3
COc1cccc(CNC(=O)C(=O)NCC2CCCO2)c1 (stereo not drawn) | 4
NS(=O)(=O)c1ccc(CCNC(=O)/C=C/c2cccc([N+](=O)[O-])c2)cc1 | 6
CCOC(=O)c1sc(=S)n(C)c1NC(=O)c1cccc(Br)c1 | -4
COC(=O)c1ccc(OC(C)C(=O)c2ccc(C)cc2)cc1 (stereo not drawn) | 11
CCCn1nnc(NC(=S)NC(=O)C(C)(C)C)n1 | 5
CCNS(=O)(=O)c1ccc(NC(=O)c2ccc(Cn3cc([N+](=O)[O-])cn3)o2)cc1 | 12
Cc1cc(NC(=O)c2ccc(Br)cc2)nc(C)n1 | 21
COC(=O)c1cc(NC(=O)C2CC(=O)NC(=NCc3ccc(OC)cc3)S2)cc(C(=O)OC)c1 (stereo not drawn) | 24
NC(=O)c1ccccc1 | -14
COc1cc(NC(=O)COc2ccc(Cl)cc2)ccc1NC(=O)C(C)C | 18
Cc1cc(OC(=O)c2ccc(S(=O)(=O)N3CCCCC3)cc2)c([N+](=O)[O-])c(=O)[nH]1 | 13
Oc1ccc(/C=N/N=C(c2ccccc2)c2ccccc2)c(O)c1O | 7
COc1ccc(Br)c(C(=O)N2CCN(S(=O)(=O)c3cccs3)CC2)c1 | 15
Cc1c(-c2ccccc2)[n+](=O)c2c(n1[O-])CCC2 | 9
C=CCN1CCN(C(CCC)c2nnnn2Cc2ccco2)CC1 (stereo not drawn) | 7
CCN1CCCC1CNC(=O)C(=O)NCc1ccccc1 (stereo not drawn) | 11
Cc1ccc(NC(=O)CCNC(=O)c2ccco2)cc1 | 23
CCCOc1cccc(-c2nn(-c3ccccc3)cc2/C=C(\C#N)C(=O)NCCCn2ccnc2)c1 | 15
COc1ccccc1CNC(=O)COc1ccc([N+](=O)[O-])cc1 | 5
COc1ccc(Cn2c(-c3ccc(Br)cc3)c[n+]3ccccc23)cc1 | 19
CCc1ccccc1N1CN(Cc2ccco2)CNC1=S | 13
Cc1cc(C)n(-c2ccc(C(=O)Nc3ccc(S(=O)(=O)N(C)C)cc3)cc2)n1 | 16
CCOC(=O)C(C)Oc1ccc2c(-c3cccc([N+](=O)[O-])c3)cc(=O)oc2c1 (stereo not drawn) | 20
CCOC(=O)c1cc(-c2ccccc2)sc1NC(=O)CSc1nncs1 | 14
COc1ccccc1CCc1nnc(CCC(=O)NCC[C@@H]2C[C@@H]3C=C[C@H]2C3)o1 | 13
c1ccc(-n2nc3ccccc3n2)cc1 | -2
CN(C)CCNc1c(N)c(=O)oc2ccccc12 | 6
COc1cccc2sc(N(CCCN(C)C)C(=O)COc3ccc(Cl)cc3)nc12 | 14
CCc1ccc2ncc(S(=O)(=O)c3ccc(C)c(C)c3)c(N3CCCC3)c2c1 | 23
CC(C)(C)c1ccc(OCCOc2ccc(C(C)(C)C)cc2NC=O)c(NC=O)c1 | 13
COc1ccccc1OCCCC(=O)Nc1ccc([N+](=O)[O-])cc1Br | 16
Cc1ccc2cc(C#N)c(SCc3nnc(-c4ccccc4[N+](=O)[O-])o3)nc2c1 | 10
CCC(=O)Nc1ccc2c(c1)nc(CCN1CCN(c3ccccc3)CC1)n2C | 11
COc1cc(OC)c(C2=Nc3ccc(Br)cc3C(c3ccccc3)N2CC(=O)NN)cc1OC (stereo not drawn) | 16
CC1(C)Oc2ccc(/C=C/C(=O)N3CCOCC3)c(O)c2C(N2CCOCC2)C1O (stereo not drawn) | 9
C=CC(COCc1ccccc1)N(C(=O)OC(C)(C)C)S(=O)(=O)c1ccccc1Br (stereo not drawn) | 17
O=C(COC(=O)Cc1ccc(Br)cc1)NCc1ccc(F)cc1 | 6
C/C=C\C(=O)Nc1cccc(C2=NOC3(C2)C[C@@H](C(N)=O)N(C(=O)c2ccccc2)C3)c1 (stereo partly drawn) | 6
Cc1ccccc1C(=O)NC(=S)NCCc1ccccc1 | 4
Cc1[nH]c2ccc(F)cc2c1CCN(Cc1ccncc1)C(=S)Nc1cccc(F)c1 | -12
CC(C)(C)OC(=O)N1CCN(C(=O)Cn2cc(CCO)nn2)CC1 | 7
O=C(Nc1ccccc1N1CCOCC1)C1(c2ccc(Cl)cc2)CCC1 | 3
Cc1ccccc1N1CCN(S(=O)(=O)N(C)C)CC1 | 13
Cc1cc(C)c(OCC(=O)Nc2nnc(-c3ccco3)o2)c(C)c1 | 10
O=c1c2ccccc2nc2n1C(CSc1ccccc1)CS2 (stereo not drawn) | 10
CC(C)(C)n1nc2c(c1NC(=O)c1cc3ccccc3o1)CS(=O)(=O)C2 | 1
CC(C)OCCCNC(=O)CN1C(=O)/C(=C/c2ccccc2)Sc2ccccc21 | 14
CC(C)(C)c1ccc(OC(=O)c2cccnc2)cc1 | -7
COc1cc(C)c(NC(=O)C(=S)NCCc2ccccc2)cc1C | 5
Cc1cc(/C=N/NC(N)=O)c(C)n1-c1ccc(F)cc1 | 10

Next entries.
SMILES | Biofilm kill mix
Cc1cccc(N2C(=O)C(O)=C(C(=O)c3cccs3)C2c2ccc(C(C)C)cc2)n1 (stereo not drawn) | 22
CN1CCN(S(=O)(=O)Cc2ccc(Cl)cc2)CC1 | 16
CSc1nc(-c2ccc(N(C)C)cc2)c(C#N)c(=O)n1C | 13
COC(=O)c1ccc(CSc2nnc(CS(=O)Cc3ccc(Br)cc3)n2-c2ccccc2)cc1 (stereo not drawn) | 23
COc1ccc(-c2nnc(SCC(=O)Oc3ccc(C)cc3)o2)cc1 | 14
O=c1cc(N2CCc3ccccc32)[nH]c(=O)n1-c1ccc(Cl)cc1 | 24
CC(C)[C@H](Nc1ccc(S(=O)(=O)N2CCOCC2)cc1[N+](=O)[O-])C(=O)OCC(=O)N(C(C)C)C(C)C | 16
CC1=NN(C(=O)c2ccccc2)C(O)(c2ccc(Br)cc2)C1 (stereo not drawn) | 15
CCC1CCc2c(sc(NC(=O)C3CC=CCC3C(=O)O)c2C#N)C1 (stereo not drawn) | 18
CCCC(=O)c1c[nH]c(C(=O)NCc2cccnc2)c1 | 11
COc1ccccc1-n1cc(C(=O)NCC(=O)NCc2ccc(F)cc2)c2ccccc2c1=O | 30
CN(C)C(=O)c1nc2ccc(Cl)cn2c1CNCc1cccc(OC(F)(F)F)c1 | 13
N/C(=N\OC(=O)CC1CCCCC1)c1cccc([N+](=O)[O-])c1 | 14
O=C(c1ccco1)N1CCCN(Cc2nc(Cc3ccccc3)no2)CC1 | 9
O=C1CCCC(O)=C1N=Nc1ccc2c(c1)OCO2 | 24
C[C@]12CC[C@@H]3c4ccc(OS(=O)(=O)O)cc4CC[C@H]3[C@@H]1CCC2=O | -4
CCOC(=O)c1ccc(NC(=S)N(Cc2cccnc2)Cc2ccco2)cc1 | 16
O=C(NCC1CCCN(Cc2ccc3nonc3c2)C1)c1cccc(C(F)(F)F)c1 (stereo not drawn) | 12
CCC1CCCCN1C(=O)c1cccc(S(=O)(=O)Nc2cc(C(F)(F)F)ccc2Cl)c1 (stereo not drawn) | 10
Cc1ccc(N(Cc2cc3ccc(C)cc3[nH]c2=O)S(C)(=O)=O)c(C)c1 | 8
CCCCNC(=S)NNC(=O)c1csc(CC)c1 | 17
c1ccc(Cc2ccc(OCCCNC3CCCC3)cc2)cc1 | 14
NC(=O)N/N=C/c1cn(-c2ccccc2)nc1-c1cccnc1 | 11
Cc1cccc(NC(=O)c2cccc3c2-c2ccccc2C3=O)n1 | 19
CNC(=O)c1ccsc1NC(=O)c1ccc(S(=O)(=O)N2CCCc3ccccc32)cc1 | 12
O=C1CCS/C(=N\N=C\c2ccc(Cl)cc2Cl)N1 | 23
Cc1cc(C)c2cc(C(=O)Nc3ccccc3)[nH]c2c1 | 13
CCCCN(CC)CCNC(=O)CCC(=O)Nc1ccc2nc(N3CCN(C)CC3)cc(C)c2c1 | 4
CCN(CC)S(=O)(=O)c1ccc(C(=O)OCC(=O)Nc2sc3c(c2C#N)CCCCC3)cc1 | 1
Nc1c(NCCc2ccccc2)c2ccccc2oc1=O | 17

Five records picked at random from the list so far:
SMILES | Biofilm kill mix
CCCCN(CC)CCNC(=O)CCC(=O)Nc1ccc2nc(N3CCN(C)CC3)cc(C)c2c1 | 4
O=C(NCC1CCCN(Cc2ccc3nonc3c2)C1)c1cccc(C(F)(F)F)c1 (stereo not drawn) | 12
CCCCNC(=S)NNC(=O)c1csc(CC)c1 | 17
C[C@]12CC[C@@H]3c4ccc(OS(=O)(=O)O)cc4CC[C@H]3[C@@H]1CCC2=O | -4
Cc1cc(C)c2cc(C(=O)Nc3ccccc3)[nH]c2c1 | 13

The list continues.
molecule | Biofilm kill mix
O=C(CSCc1nc2c(nnn2Cc2ccc(F)cc2)c(=O)[nH]1)Nc1c(Cl)cc(Cl)cc1Cl | 19
CC(C)(C)c1ccc(C(CC(=O)O)NC(=O)c2ccccc2F)cc1 (stereo not drawn) | 3
COc1cccc(/C=C2\SC(N)=NC2=O)c1OS(=O)(=O)c1ccccc1 | 17
O=C1CCCC2=C1C1c3ccccc3C(=O)N1c1ccc(C(=O)c3ccccc3)cc1N2 (stereo not drawn) | -3
COCCNC(=S)NNC(=O)c1ccc(-n2cnnn2)cc1 | 9
COC(=O)[C@H](CC(C)C)NC(=O)NCc1ccc(Cl)cc1 | 20
Nc1c(C(=O)O)cnc2nc(N3CCOCC3)nn12 | -23
COc1ccc(-c2nc3c(c(=O)c4ccccc4n3C)c(=O)n2Cc2ccccc2)cc1 | 8
Cc1ccnc(N2CCC(C(=O)NNC(=O)c3ccncc3)CC2)n1 | -6
COc1ccc(/C=C2/CC/C(=C\c3ccc(OC)c(OC)c3OC)C2=O)c(OC)c1OC | 7
CC/C(O)=C1\C(=O)CC(c2ccccc2)CC1=NCCc1c(C)[nH]c2ccc(C)cc12 (stereo not drawn) | 4
COc1ccccc1/C=C/C=N/NC(=O)c1cc(-c2ccc(C)o2)[nH]n1 | 20
CCOC(=O)/C(C#N)=C/c1c(Oc2cc(C)cc(C)c2)nc2ccccn2c1=O | 19
COc1ccccc1NC(=O)c1ccc(NC(=O)COC(=O)C(C)C)cc1 | 11
CC(C)(O)C#Cc1ccc(C(=O)NCc2ccccc2F)cc1 | -1

In another format: entries from further up
> COc1ccccc1/C=C/C=N/NC(=O)c1cc(-c2ccc(C)o2)[nH]n1
  Biofilm kill mix: 20

> COc1ccc(/C=C2/CC/C(=C\c3ccc(OC)c(OC)c3OC)C2=O)c(OC)c1OC
  Biofilm kill mix: 7

Filtered by structure, the compounds so far with a COOH group
molecule | Biofilm kill mix
CCC1CCc2c(sc(NC(=O)C3CC=CCC3C(=O)O)c2C#N)C1 (stereo not drawn) | 18
CC(C)(C)c1ccc(C(CC(=O)O)NC(=O)c2ccccc2F)cc1 (stereo not drawn) | 3
Nc1c(C(=O)O)cnc2nc(N3CCOCC3)nn12 | -23

(listing goes on)
molecule | Biofilm kill mix
CC1(OC(=O)C2CCCC2)C(=O)C=C2C=C(c3ccsc3)OC=C2C1=O (stereo not drawn) | 17
Cc1ccc(N2C(=O)CC(NNc3nc4ccccc4s3)C2=O)cc1C (stereo not drawn) | 10
COc1ccc(-c2[nH]ncc2CN2CCCC(C(=O)c3cccc(OC)c3)C2)cc1 (stereo not drawn) | 4
CC(=O)c1csc(COc2cc(Cl)cc(Cl)c2)n1 | 7
O=C(COC(=O)c1ccc(Cl)s1)c1ccc[nH]1 | 17
Cc1cc(C)n2nc(C(=O)N/N=C/c3cn(C)nc3C)nc2n1 | 29
Cc1cc(C)cc(N(CC(=O)Nc2ccc(-c3nc4ccc(C)cc4s3)cc2)S(C)(=O)=O)c1 | 8
COc1cc(OC)cc(C(=O)Nc2c(F)cccc2F)c1 | 1
CCC(C)Sc1cc(C(F)(F)F)c(C(=O)Nc2ccc(Cl)cc2)cn1 (stereo not drawn) | 12
C=CCNC(=O)CC1Nc2c3ccccc3nc(=S)n2C1=O (stereo not drawn) | 14
CCCN1CCC(=NNc2ccc(S(=O)(=O)N(CC)CC)cc2[N+](=O)[O-])CC1 | 2
N/C(Cc1ccc(Cl)cc1)=N\OC(=O)Cc1ccc([N+](=O)[O-])cc1 | 8
Cc1cc(OC(=O)C(C)(C)C)c([N+](=O)[O-])c(=O)[nH]1 | 17
COc1ccc(/C(O)=C2/C(=O)C(=O)N(CCN3CCOCC3)C2c2ccccn2)cc1OC (stereo not drawn) | 20
COC(=O)c1cccc(NS(C)(=O)=O)c1 | 13
CS(=O)(=O)Nc1ccccc1NS(C)(=O)=O | 9
CCCCOc1ccc(C(=O)NC(=S)Nc2ccc(CN3CCOCC3)cc2)cc1 | 8
COc1ccc(S(=O)(=O)N2CCC(C(=O)NCc3ccccc3)CC2)cc1OC | 16
CCOc1ccc(C(=O)/C=C/c2cc(OC)c(OC)c(OC)c2)cc1 | 10
CC1=CC(C)(C)n2c(O)c(N=N)c3c(C)c(C)cc1c32 | 12
CC(C)C(O)(CC#CCN1CCCC1)c1ccccc1 (stereo not drawn) | 14
CCOc1ccc(/C=N/N2C(=O)C(CC(=O)Nc3ccc(F)cc3F)SC2=NC)cc1OC (stereo not drawn) | 0
O=C(NCC1CCCO1)C1CCN(C2CCN(C(=O)Cc3ccsc3)CC2)CC1 (stereo not drawn) | 12
O=C(CCN1C(=O)c2cccc3cccc(c23)C1=O)Nc1ccccc1 | 18

Bioassay records from PubChem.
